Screening data deposited in PubChem BioAssay by several laboratories.
Arbovirus anti: blocks arbovirus infection; arbovirus infection cell-based antiviral screen; inhibition, % at 10 µM; 0.37% of 200,000 active; AID 1251;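 active means inhibition from about 30%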;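 further: bluetongue infection of BSR cells; cell survival read as ATP light after 72 h; 0% = infected wells without compound and 100% = uninfected wells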
Mtb bLac sens: beta-lactam sensitization of Mtb H37Rv; M. tuberculosis H37Rv growth with meropenem, percent inhibition; hits of this screen are not shown here; inhibition, % at 25 µM; 0.27% of 330,000 active; AID 434955;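 active means about 74% or more and at least 40 points above the plate without the antibiotic, then above 30% in a dose series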;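 further: growth measured after seven days incubation then overnight dye step; 0% = bacteria only wells and 100% = bacteria with antibiotic; twin plates without the antibiotic show which effects depend on it; some results filed as inactive read as strong as hits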
Mtb growth: M. tuberculosis H37Rv growth inhibitors, H37Rv strain (AID 1626) | M. tuberculosis H37Rv growth inhibition; higher % means a stronger effect | inhibition, % at 10 µM; hits with a dose series show IC50 in µM | 0.95% of 220,000 active;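 active means confirmed in a dose series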;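 further: bacteria incubated seven days before Alamar blue readout; 0% = bacteria only wells and 100% = bacteria with antibiotic wells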
YopH inh: inhibitors of Yersinia enterocolitica YopH tyrosine phosphatase. inhibition, %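 (about 10 µM by stock and volumes)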. fluorescence Ex485/Em525. AID 898. 0.16% of 140,000 active;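 active means inhibition of 50% or more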;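 further: controls were vehicle for no effect and minimum signal wells for full effect; inactives centre near -20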
RecA intein inh: inhibitors of M. tuberculosis RecA intein splicing. 0.75% of 290,000 active. cell-free RecA intein splicing, fluorescence. inhibition, %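 (about 9 µM by stock and volumes)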; in the data active means inhibition above about 30%;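 further: 0% = vehicle wells and 100% = reference inhibitor control wells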
Target sequence (P9WHJ3 whole entry, looked up): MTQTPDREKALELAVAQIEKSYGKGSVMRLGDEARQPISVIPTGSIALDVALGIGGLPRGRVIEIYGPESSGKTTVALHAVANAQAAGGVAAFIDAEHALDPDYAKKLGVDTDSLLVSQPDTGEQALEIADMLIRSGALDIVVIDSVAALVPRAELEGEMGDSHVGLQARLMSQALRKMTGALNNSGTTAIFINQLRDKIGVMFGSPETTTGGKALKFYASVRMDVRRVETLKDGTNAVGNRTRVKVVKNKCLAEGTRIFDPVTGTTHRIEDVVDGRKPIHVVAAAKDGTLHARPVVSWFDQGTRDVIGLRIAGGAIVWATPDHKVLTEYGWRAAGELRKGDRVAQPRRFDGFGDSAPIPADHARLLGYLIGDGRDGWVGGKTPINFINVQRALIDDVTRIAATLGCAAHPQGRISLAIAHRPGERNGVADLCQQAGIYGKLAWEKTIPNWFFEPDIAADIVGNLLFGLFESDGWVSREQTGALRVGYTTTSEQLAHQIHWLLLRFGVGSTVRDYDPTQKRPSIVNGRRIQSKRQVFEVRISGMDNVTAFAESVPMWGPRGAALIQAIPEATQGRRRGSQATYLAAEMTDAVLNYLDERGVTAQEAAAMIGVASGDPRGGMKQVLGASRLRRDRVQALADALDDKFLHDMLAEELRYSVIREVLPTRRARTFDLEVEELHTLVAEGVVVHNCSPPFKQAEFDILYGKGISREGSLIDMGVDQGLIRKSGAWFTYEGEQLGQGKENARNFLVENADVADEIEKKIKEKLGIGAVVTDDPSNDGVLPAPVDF
Arbovirus anti repeat: recorded beside Arbovirus anti, whose call it bears; inhibition, %; measured here: 10K subset replicate screen; many hits read low in the repeat;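 first of two repeat runs on a subset; 0% = infected and 100% = uninfected wells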
Numbers without * were called inactive; · = no result given. This is a subset, so the mix of outcomes need not match the whole.

SMILES | Arbovirus anti | Mtb bLac sens | Mtb growth | YopH inh | RecA intein inh | others
CCCc1nnc(NC(=O)CCC(=O)N2CCN(Cc3ccccc3)CC2)s1 | · | -8 | · | · | 1.6
Cc1sc2nc(SCc3nc4ccccc4[nH]3)n(Cc3ccco3)c(=O)c2c1C | 15 | 6 | · | -59 | -2.4
O=C(CCCCCn1c(=S)[nH]c2ccc(N3CCOCC3)cc2c1=O)NCc1ccccc1 | 1 | -3 | -5% | -10 | -11
COc1ccc(OCC(=O)Nc2ccc(N3CCN(C(=O)c4ccccc4)CC3)c(Cl)c2)cc1 | · | -17 | · | · | 1.4
NS(=O)(=O)c1ccc2nc(NC(=O)C3CCCO3)sc2c1 (stereo not drawn) | 3 | 1 | -3% | -17 | 1.1
COC(=O)C1=NN(C(=O)c2cccc(Br)c2)C(O)(c2ccc(Cl)cc2)C1 (stereo not drawn) | 16 | 9 | -5% | · | 37*
COc1ccc(CNC(=O)CCC(=O)Nc2nnc(CC(C)C)s2)cc1 | · | -12 | -2% | · | 1.4
COc1ccccc1-c1nnc(SCC(=O)NCc2ccco2)n1N | 4 | -1 | 3% | · | -4.1
COc1ccc(C(=O)NCC(c2ccc3c(c2)OCO3)N2CCN(c3ccc(OC)cc3)CC2)cc1 (stereo not drawn) | · | -6 | · | · | -3.8
O=C(c1ccc(CS(=O)(=O)Cc2ccccc2)cc1)N1CCCCC1 | · | 2 | · | · | -4.8
Cc1sc2ncn(CC(=O)NCc3ccccn3)c(=O)c2c1S(=O)(=O)N1CCOCC1 | 11 | 7 | -1% | 4 | -0.6 | Arbovirus anti repeat=6
COc1cc(/C=C/c2ccc3c([N+](=O)[O-])cccc3n2)ccc1OCC(=O)O | · | 99 | 2.7µM* | · | 4.7
CCOc1ccccc1NC1=C(Cl)C(=O)N(c2ccccc2)C1=O | -3 | 4 | 1% | -12 | 4.9
O=C(NCCCN1CCOCC1)c1ccc2c(c1)N(Cc1cccc(F)c1)C(=O)c1ccccc1S2 | · | -2 | · | · | -10.0
C#CCOCCOCCOCCNc1nc(N2CCN(C(=O)[C@H](C)n3cc(CCCN=C(N)N)nn3)CC2)nc(N2CCN(C(=O)[C@H](Cc3ccc(O)cc3)n3cc(CCO)nn3)CC2)n1 | 15 | 0 | · | -19 | 0.7
Cc1cc(Cl)ccc1OCC(=O)NCCOc1nc(N2CCOCC2)nc(N2CCOCC2)n1 | 3 | -3 | 6% | -16 | 0.5
CC(C)OC(=O)/C(C#N)=C/c1cn(Cc2ccccc2)c2ccccc12 | -1 | 4 | 11% | -6 | 1.3
O=C(Oc1ccccc1C(=S)N1CCOCC1)c1cccc([N+](=O)[O-])c1 | · | 5 | · | · | 6.4
CC(C)NS(=O)(=O)c1ccc(OCC(N)=O)c(Cl)c1 | 2 | -9 | -1% | -25 | -2.6
Cc1cc(NCCNC2=CC(=O)CCC2)nc2ccccc12 | -3 | 0 | -8% | -20 | -0.8
Cc1ccc(C)c(OCc2cc(C(=O)NC(C)c3cnn(C)c3)no2)c1 (stereo not drawn) | · | 4 | · | · | 1.2
Cc1ccc(OCc2nc(C#N)c(NCc3ccc4c(c3)OCO4)o2)cc1 | -9 | 72 | 15% | -18 | 16
CCC(=O)NC(C)c1nc2ccccc2n1C (stereo not drawn) | 1 | 3 | -4% | -12 | 2.7 | Arbovirus anti repeat=4
COc1ccc(C(CC(=O)Nc2ncccc2C)N2Cc3ccccc3C2=O)cc1OC (stereo not drawn) | · | -10 | · | · | -0.3

14 entries out of the list, ordered by formula weight, highest first.
SMILES | Arbovirus anti | Mtb bLac sens | Mtb growth | YopH inh | RecA intein inh | others
O=C(NCCCN1CCOCC1)c1ccc2c(c1)N(Cc1cccc(F)c1)C(=O)c1ccccc1S2 | · | -2 | · | · | -10.0
Cc1cc(Cl)ccc1OCC(=O)NCCOc1nc(N2CCOCC2)nc(N2CCOCC2)n1 | 3 | -3 | 6% | -16 | 0.5
Cc1sc2ncn(CC(=O)NCc3ccccn3)c(=O)c2c1S(=O)(=O)N1CCOCC1 | 11 | 7 | -1% | 4 | -0.6 | Arbovirus anti repeat=6
COc1ccc(C(CC(=O)Nc2ncccc2C)N2Cc3ccccc3C2=O)cc1OC (stereo not drawn) | · | -10 | · | · | -0.3
COc1cc(/C=C/c2ccc3c([N+](=O)[O-])cccc3n2)ccc1OCC(=O)O | · | 99 | 2.7µM* | · | 4.7
O=C(Oc1ccccc1C(=S)N1CCOCC1)c1cccc([N+](=O)[O-])c1 | · | 5 | · | · | 6.4
Cc1ccc(OCc2nc(C#N)c(NCc3ccc4c(c3)OCO4)o2)cc1 | -9 | 72 | 15% | -18 | 16
COc1ccccc1-c1nnc(SCC(=O)NCc2ccco2)n1N | 4 | -1 | 3% | · | -4.1
O=C(c1ccc(CS(=O)(=O)Cc2ccccc2)cc1)N1CCCCC1 | · | 2 | · | · | -4.8
Cc1ccc(C)c(OCc2cc(C(=O)NC(C)c3cnn(C)c3)no2)c1 (stereo not drawn) | · | 4 | · | · | 1.2
CC(C)OC(=O)/C(C#N)=C/c1cn(Cc2ccccc2)c2ccccc12 | -1 | 4 | 11% | -6 | 1.3
CCOc1ccccc1NC1=C(Cl)C(=O)N(c2ccccc2)C1=O | -3 | 4 | 1% | -12 | 4.9
CC(C)NS(=O)(=O)c1ccc(OCC(N)=O)c(Cl)c1 | 2 | -9 | -1% | -25 | -2.6
CCC(=O)NC(C)c1nc2ccccc2n1C (stereo not drawn) | 1 | 3 | -4% | -12 | 2.7 | Arbovirus anti repeat=4

Later entries:
SMILES | Arbovirus anti | Mtb bLac sens | Mtb growth | YopH inh | RecA intein inh | others
O=C(CCCn1c(=O)c2ccccc2n(CC(=O)N2CCN(c3ccccc3)CC2)c1=O)NCc1ccco1 | 3 | -5 | 4% | · | 0.1
O=C(CC1CC2CCC1C2)OCC(=O)c1c[nH]c2ccccc12 (stereo not drawn) | 7 | 17 | -5% | -39 | 5.3
CC(C)CC(=O)NC(=S)Nc1ccccc1C(=O)Nc1ccccc1 | 3 | -5 | -5% | -17 | 0.4
COc1ccc(C)cc1NCc1ccc([N+](=O)[O-])cc1 | · | -2 | · | · | 0.7
CS(=O)(=O)N(CC(=O)NCCSCc1ccccc1)c1ccc2c(c1)OCO2 | -11 | -9 | 3% | · | -1.5
CCCCOc1ccc(C(=O)NCCCC(=O)N2CCCCC2)cc1 | -2 | 6 | -3% | -48 | 4.7
COc1ccccc1NC(=S)NCC1CCCO1 (stereo not drawn) | -1 | -2 | -7% | -18 | ·
COc1ccccc1CCC(=O)OCC(=O)Nc1cccc(S(=O)(=O)N2CCOCC2)c1 | · | 4 | · | · | 1.9
COc1ccc(S(=O)(=O)N2CCN(c3nc(C)cc(C)n3)CC2)cc1 | · | 18 | · | · | 1.7
Cc1ccc(C)c(S(=O)(=O)N2CCCOC2CNC(=O)C(=O)NCc2ccccn2)c1 (stereo not drawn) | · | -3 | · | · | 1.5
C=CCc1c(C)nc2c(C(=O)O)cnn2c1C | 1 | -3 | 1% | -42 | 3.4
Cc1cc(N)n2nc(-c3ccccc3)c(-c3ccccc3)c2n1 | · | 11 | · | · | 2.5

Two entries picked at random from the list so far:
SMILES | Arbovirus anti | Mtb bLac sens | Mtb growth | YopH inh | RecA intein inh | others
C=CCc1c(C)nc2c(C(=O)O)cnn2c1C | 1 | -3 | 1% | -42 | 3.4
CCCCOc1ccc(C(=O)NCCCC(=O)N2CCCCC2)cc1 | -2 | 6 | -3% | -48 | 4.7

Continuation:
SMILES | Arbovirus anti | Mtb bLac sens | Mtb growth | YopH inh | RecA intein inh | others
CSc1cccc(NS(=O)(=O)c2cccs2)c1 | 8 | -5 | 2% | 13 | 1.6
Cc1cc(OCC(=O)N2C[C@H]3C[C@@H](C2)c2cccc(=O)n2C3)c2c(C)cc(=O)oc2c1 | · | 4 | · | · | -1.4
O=c1c2[nH]c3cccc(Cl)c3c2ncn1Cc1ccncc1 | 4 | -2 | -11% | -32 | 2.2
CCN(CC)C(=O)CSc1nsc(SCC(=O)N(CC)CC)c1C#N | 10 | -7 | · | -15 | · | Arbovirus anti repeat=-1
COCC(C)n1c(C)cc(C(=O)COC(=O)CN=C2NS(=O)(=O)c3ccccc32)c1C (stereo not drawn) | 4 | 3 | 1% | -24 | -4.5
CCOCCCn1c(=S)[nH]c2cc(C(=O)N3CCOCC3)ccc2c1=O | 10 | -22 | -7% | -50 | 2.0
O=C(NCc1cccs1)C1CC(=O)N(C2CCCC2)C1 (stereo not drawn) | 1 | 9 | -10% | 9 | 0.0
O=[N+]([O-])c1cncc([N+](=O)[O-])c1Nc1cccc(O)c1 | · | 4 | · | · | 46*
Cc1nn(CCCC(=O)NC2CCC(C)CC2)c(=O)c2nn(-c3ccccc3)c(C)c12 (stereo not drawn) | · | -9 | · | · | -4.5
CC1CCCCC1NC(=O)COc1ccc(-n2cnnn2)cc1 (stereo not drawn) | -3 | 4 | 4% | -16 | 0.4
O=C(c1cc(=O)[nH]c2ccccc12)N1CCN(c2ccccc2)CC1 | · | -6 | -3% | · | -0.9
Cc1nc(N2CCN(C)CC2)[nH]c(=O)c1Cc1cccc2ccccc12 | -1 | -2 | 1% | -38 | -0.6
CCC(=O)c1ccc(N2CCN(C(=O)c3cccc(F)c3)CC2)c(F)c1 | 8 | 0 | -1% | · | -3.3
COc1ccc(CCNC(=O)c2cc(S(=O)(=O)N(C)C)ccc2N2CCCC2)cc1 | · | 0 | · | · | 2.0
O=C(/C=C/c1ccco1)c1ccc(O)cc1 | 12 | 63 | 15% | · | 6.3
COc1ccc(-c2oc3ccc(-c4ccc(OC)nc4)cc3c2C#CC2(O)CCCCC2)cc1 | · | 96 | · | · | -3.7
O=C(Nc1nc(-c2cccs2)c(C(=O)C(F)(F)F)s1)c1ccco1 | 28 | -1 | -1% | · | 5.7
COC(C[C@@H]1O[C@H]1[C@H](O)COCc1ccccc1)OC | · | · | -10% | · | -3.0
CCn1c(SCc2ccc(OC)cc2)nnc1-c1ccncc1 | 8 | -1 | -2% | 2 | -1.5
CCOc1ccc(NC(=O)CN(C)C(=O)c2ccc(C)o2)cc1OCC | · | -2 | · | · | -0.8
O=C(Cc1cc(=O)[nH]c(=O)[nH]1)NCc1ccccc1 | 4 | -2 | · | -33 | -3.8
O=C1Nc2ccc(F)cc2C12OCCO2 | · | 9 | · | · | 1.8
Cc1ccc(CSc2nnc3nc(C)cc(C)n23)cc1 | 3 | -10 | 2% | -13 | -5.0
Cc1[nH]c(=O)[nH]c(=O)c1S(=O)(=O)Nc1ccc(F)c([N+](=O)[O-])c1 | · | 6 | · | · | -2.3
Cc1ccc(OCC(=O)NCC(=O)Nc2ccc(F)c(F)c2F)c([N+](=O)[O-])n1 | 1 | 0 | 1% | -17 | -5.8
COc1ccc(C(C)NC(=O)C23CC4CC(CC(C4)C2)C3)cc1 (stereo not drawn) | · | 4 | · | · | -3.8
CC1CN(c2nc(Nc3ccccc3)nc(N)c2[N+](=O)[O-])CC(C)O1 (stereo not drawn) | · | -9 | 4% | · | ·
Cc1ccnc(NS(=O)(=O)c2ccc(NC(=O)c3ccc(S(=O)(=O)N4CCOCC4)cc3)cc2)n1 | 1 | -1 | -6% | -29 | -1.2
CC(C)C(C(=O)NCC1CCCO1)N(Cc1cccs1)C(=O)CNS(=O)(=O)c1ccccc1 (stereo not drawn) | 14 | -2 | -7% | · | 3.8
Cc1ccc(-c2nnn(CC(=O)N(Cc3cccs3)C(C(=O)NC3CCCC3)c3ccco3)n2)o1 (stereo not drawn) | -15 | 6 | -5% | -17 | -0.3
Cc1ccc(S(=O)(=O)Oc2ccc(C3C4=C(CCCC4=O)OC4=C3C(=O)CCC4)cc2)cc1 | 5 | 0 | 2% | -35 | -0.8
COc1ccc(/C=C/C(=O)NCc2cnn(C)c2C)cc1COc1ccc(Br)cc1 | -18 | 57 | 10% | 7 | ·
CCOC(=O)c1cnc(SCc2cccc3ccccc23)nc1N | 0 | -13 | 0% | -5 | 4.2
CCc1ccc(CCC(=O)Nc2ccc(S(N)(=O)=O)cc2)o1 | 7 | -5 | 2% | -12 | -0.1
Clc1ccc(CN2CCN(/N=C/c3cccnc3)CC2)cc1 | 8 | 0 | -3% | · | -1.0
CCOc1ccc(S(=O)(=O)NCCC(=O)NC2CCCCC2)cc1 | · | -6 | · | · | 2.1
COC(=O)c1sccc1NC(=O)c1ccc(C)cc1 | · | -2 | · | · | 5.5
COC(=O)c1c(C(=O)OC)c(-c2ccc(C)cc2)n2c1CS(=O)C2 (stereo not drawn) | 3 | -2 | -4% | -4 | 1.9
